LANA-H2B inh – blockers of LANA interaction with H2A/H2B – biochemical, FP readout, HTS, primary screen. Protein LANA1 (Human herpesvirus 8 type P (isolate GK18)), Q9QR71. cell-free LANA-H2A/H2B peptide, fluorescence polarization. inhibition, % (test concentration not listed). 320,000 tested, 0.6% active. AID 2629, 2010; in the data active means inhibition mostly above about 10%, no sharp cut-off; inactive means mostly below about 6.7%;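 further: stock transfer was 7.5 nL into about 10 µL; 0% = median of vehicle wells and 100% = median of positive control wells; one replicate is shown; the record names a cut of 25% in any replicate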
Target sequence (Q9QR71 whole entry, looked up): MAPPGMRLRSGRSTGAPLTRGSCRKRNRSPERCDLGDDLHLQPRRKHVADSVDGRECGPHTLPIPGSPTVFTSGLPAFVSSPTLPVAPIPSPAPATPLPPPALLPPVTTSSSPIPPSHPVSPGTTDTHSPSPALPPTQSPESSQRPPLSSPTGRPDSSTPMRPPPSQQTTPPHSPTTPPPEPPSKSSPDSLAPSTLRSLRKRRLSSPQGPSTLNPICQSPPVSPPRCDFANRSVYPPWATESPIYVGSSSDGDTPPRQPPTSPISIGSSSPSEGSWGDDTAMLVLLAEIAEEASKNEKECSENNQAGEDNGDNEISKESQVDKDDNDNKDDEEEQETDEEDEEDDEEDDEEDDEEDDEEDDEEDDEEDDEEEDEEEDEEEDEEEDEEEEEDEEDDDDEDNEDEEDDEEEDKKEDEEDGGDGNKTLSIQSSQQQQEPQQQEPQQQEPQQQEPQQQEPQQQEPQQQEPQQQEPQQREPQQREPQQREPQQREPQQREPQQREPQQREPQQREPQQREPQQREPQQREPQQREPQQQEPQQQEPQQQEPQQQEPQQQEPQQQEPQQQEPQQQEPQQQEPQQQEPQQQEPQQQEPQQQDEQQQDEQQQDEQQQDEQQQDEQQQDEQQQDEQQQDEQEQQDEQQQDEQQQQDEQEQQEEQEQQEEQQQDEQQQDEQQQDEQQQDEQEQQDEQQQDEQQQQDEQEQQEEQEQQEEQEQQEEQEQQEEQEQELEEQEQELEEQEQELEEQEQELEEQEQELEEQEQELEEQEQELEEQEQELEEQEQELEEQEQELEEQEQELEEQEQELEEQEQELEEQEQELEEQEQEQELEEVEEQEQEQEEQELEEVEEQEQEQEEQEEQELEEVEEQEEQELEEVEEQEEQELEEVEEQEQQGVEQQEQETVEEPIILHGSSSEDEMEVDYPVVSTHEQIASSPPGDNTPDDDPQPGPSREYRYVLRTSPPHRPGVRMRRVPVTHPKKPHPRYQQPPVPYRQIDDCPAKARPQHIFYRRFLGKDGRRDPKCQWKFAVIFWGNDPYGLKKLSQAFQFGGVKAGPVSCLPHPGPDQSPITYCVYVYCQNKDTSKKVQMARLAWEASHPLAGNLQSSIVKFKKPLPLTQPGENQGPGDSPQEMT
A1 inh – caspase 3/7 activation in MEF A1-2A-BIM cells, primary screen, A1 inhibitor project, cell-based, luminescence, HTS. Caspase-Glo 3/7 luminescence, 3 h; percent of clofoctol response, vehicle zero. caspase activation, % (concentration not given with the values). 330,000 tested, 0.066% active. AID 2462, 2010;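 active means over half of replicate activation scores above 10%, or exactly half above 10 with the replicate mean above 10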;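 further: wells of about 30 µL received 50 nL stock; many hits fall short of the cut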
B2AR ag – beta2AR agonists driving receptor internalization, primary screen, cell-based, FAP fluorogen, flow cytometry; Beta-2 adrenergic receptor (Homo sapiens), P07550; Am2.2-beta2AR cells; reference of the scale not given here; response, % (concentration not given with the values); 340,000 tested, 0.43% active; AID 504454, 2011;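 active means response above a set limit, near 3 SD of response in nonfluorescent compounds, cut at about 42% in these data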;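 further: stock transfer was 100 nL into about 11 µL; a reference agonist was the positive control; negative values mostly stem from fluorescent compounds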
ALR inh – inhibitors of human ALR sulfhydryl oxidase, primary screen, biochemical, H2O2 detection, HRP-luminol luminescence, single point. FAD-linked sulfhydryl oxidase ALR (Homo sapiens), P55789. purified ALR, DTT oxidation. inhibition, % (no concentration beside the values). 290,000 tested, 3.8% active;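 active means mean and each replicate at 75% or more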;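 further: stock transfer was 7.5 nL into about 7.5 µL; 0% = neutral wells and 100% = wells with inactivated enzyme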
rRNA inh HTS – reduced GFP signal of wild-type E. coli, primary screen, bacterial rRNA inhibitor project, GFP/RFP fluorescence, OD600, single point. E. coli WT GFP vs humanized-ribosome RFP mutants, 24 h; hits give low values; DMSO median 0, no signal -100. GFP signal change (wild-type ribosome), % (concentration not given with the values). 350,000 tested, 1.6% active;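 active means significant combined selectivity score with lowered wild-type GFP, culture density cut under 30%, mutant RFP and density less affected; inactive means any of these conditions unmet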; further: one replicate is shown; some compounds called inactive have numbers as strong as hits
Calb FLC – C. albicans growth inhibition with fluconazole, primary screen, CaCi-2 strain, Alamar Blue fluorescence. C. albicans CaCi-2 (fluconazole-resistant clinical isolate) + fluconazole, 48 h. growth inhibition, % (no concentration beside the values). 300,000 tested, 0.57% active;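 active means most replicates above 75%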;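 further: all wells also contain fluconazole at 8 µg/ml as a sub-toxic cotreatment; 0% = median of DMSO wells and 100% = median of geldanamycin control wells; wells of about 8 µL received 7.5 nL stock; the first replicate is given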
T cruzi inh – inhibitors of intracellular T. cruzi growth, primary screen, luminescence, NIH3T3 host cells | T. cruzi beta-gal in NIH3T3, 90 h | inhibition, % (test concentration not listed) | 300,000 tested, 1.4% active;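 active means mean inhibition across valid replicates above about 55%, limit read from the data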;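 further: signal also drops with host cell toxicity which is not excluded here; 0% = plate median of DMSO wells and 100% = zero luminescence signal; higher percent means less beta-gal luminescence so fewer parasites; stock transfer was 50 nL into about 50 µL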
Beta cell apopt – inhibitors of cytokine-induced beta cell apoptosis, primary screen, luminescence | protection from apoptosis, % (no concentration beside the values) | AID 435005, 2010 | INS-1E cytokine-induced death, ATP luminescence, 48 h; percent of positive-control rescue, neutral wells zero | 300,000 tested, 0.8% active;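 active means all replicates at 75% or more, or half of them and the mean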;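 further: 0% = cytokine-treated negative control wells and 100% = positive control rescue; higher means more ATP so stronger rescue from cytokine killing; wells of about 40 µL received 100 nL stock; the first replicate is given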
rRNA inh HTS OD600 – second read-out of rRNA inh HTS, no call of its own (marks repeat the call); OD600 change, %; measured here: OD600 growth;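 optical density of the mix in the first replicate; 0 = DMSO median and -100 = no signal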
rRNA inh HTS RFP – recorded beside rRNA inh HTS, whose call it bears; RFP signal change, %; measured here: RFP humanized mutant strains;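 first replicate; 0 = DMSO median and -100 = no signal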
The depositor's hits bear a star; x = not tested or not shown.

SMILES | LANA-H2B inh | A1 inh | B2AR ag | ALR inh | rRNA inh HTS | rRNA inh HTS OD600 | rRNA inh HTS RFP | Calb FLC | T cruzi inh | Beta cell apopt
Cc1cc(C)c(C)c(S(=O)(=O)NNC(=O)c2cccc(S(=O)(=O)N3CCOCC3)c2)c1C | -1.0 | 0.9 | -6.2 | 3.3 | x | x | x | -2.4 | -19.7 | -4.5
Cc1noc2ncnc(Oc3ccc(Cl)cc3Cl)c12 | -4.3 | -1.1 | 5.0 | -3.5 | 7.5 | 6.2 | -0.7 | 21.8 | -9.9 | -3.4
CCOC(=O)c1cnc(NCc2ccccc2)nc1C | 1.1 | 0.3 | 4.9 | -5.4 | x | x | x | -7.1 | -9.7 | 2.7
CCOC(=O)c1cnn(Cc2cccc(Cl)c2)c1C | -2.0 | 0.6 | -6.0 | 4.0 | -18.2 | -10.2 | -1.5 | 13.0 | 13.4 | -4.7
CN(C)Cc1c(C(=O)N/N=C/c2ccccc2OCc2ccc(F)cc2)nnn1-c1nonc1N | 4.2 | -0.8 | 2.8 | -1.8 | 7.0 | 6.2 | -1.2 | 1.8 | 6.0 | 2.8
O=C(c1ccccc1)c1ccc(OCC(O)CN2CCOCC2)cc1 (centres undefined) | 5.9 | 0.0 | 3.4 | 12.3 | x | x | x | 0.5 | -0.8 | -0.6
COc1ccc(OC)c2[nH]c(=O)c(CCNS(=O)(=O)c3ccc(C)cc3)cc12 | 6.7 | 0.5 | 8.6 | x | x | x | x | 0.2 | 4.7 | 0.5
COCCNc1nc(NCc2ccccc2)c2cnn(C)c2n1 | -2.5 | 0.3 | -1.5 | 1.0 | 10.7 | 10.5 | -0.9 | -37.1 | 10.0 | 5.5
Cc1noc(C)c1NC(=O)Nc1cccc2c1O[C@H](CN(C)C(=O)Nc1ccc3c(c1)OCO3)[C@@H](C)CN([C@H](C)CO)C2=O | 0.6 | 0.1 | 2.8 | x | 2.0 | 6.2 | -2.2 | x | x | -8.6
CS(=O)(=O)c1ccc2nc(NC(=O)C3C4C=CC(C4)C3C(=O)O)sc2c1 (centres undefined) | 10.6 | 0.6 | 0.9 | x | x | x | x | -3.5 | -9.7 | -12.2
COc1ccc(S(=O)(=O)Nc2cccnc2)cc1 | -0.9 | -0.5 | 1.7 | 2.7 | 13.8 | 2.0 | 0.6 | 32.0 | 0.2 | -3.3
CCOc1ccc(S(=O)(=O)NCc2cccnc2)c2ccccc12 | 5.5 | 0.4 | -4.1 | -4.9 | -0.4 | -3.8 | -2.0 | 8.4 | 2.8 | -1.0
COc1ccc(NC(=O)Cc2ccsc2)cc1S(=O)(=O)N1CCOCC1 | -6.2 | -0.5 | -4.2 | -0.5 | 15.6 | 6.9 | 2.8 | x | x | -2.9
CCNc1nc(SC)nc(N(C#N)CC(=O)OC)n1 | -7.0 | 0.4 | 1.8 | 16.3 | 4.6 | 4.4 | 0.0 | -2.4 | -3.9 | 1.0
CC(NC(=O)c1ccccc1F)c1cccc2ccccc12 (centres undefined) | 1.7 | 0.4 | 30.8 | -16.5 | -18.9 | -41.0 | -21.9 | -3.9 | -5.5 | -5.1
COc1ccc(OC)c(CCNC(=O)c2ccc3c(c2)N(Cc2ccccc2)CCS3)c1 | -0.9 | -1.9 | -3.0 | 1.1 | -0.2 | -1.6 | -2.3 | -5.4 | 29.7 | -0.2
CC(C)(C)C(=O)N/C(N)=N/c1nc2ccccc2o1 | -4.5 | -1.2 | 16.4 | -5.6 | -10.8 | -15.6 | -0.8 | -6.6 | -6.5 | 3.9
C=CCNC(=O)c1ccc(C)cc1Cl | -0.6 | 0.1 | 4.6 | -16.1 | x | x | x | -4.1 | 3.3 | -3.8
O=C(NNS(=O)(=O)c1ccccc1)c1ccc(O)cc1 | x | 0.7 | 0.1 | x | 2.5 | 4.2 | -2.9 | -8.4 | -8.9 | -10.0
Cc1ccccc1NC(=S)NCc1ccc(Cl)cc1 | 2.5 | -0.2 | -4.2 | -1.7 | x | x | x | 0.2 | 3.3 | -10.9
Cc1cccc(OCC(=O)N/N=C/c2cc([N+](=O)[O-])ccc2N2CCOCC2)c1 | -6.6 | 0.3 | 7.9 | -4.3 | x | x | x | 9.1 | 9.6 | -8.0
O=C(NCc1ccccc1)c1ccc(NC(=O)C2CCCO2)cc1 (centres undefined) | 6.0 | 0.9 | 15.9 | -2.4 | 6.4 | 12.2 | 1.5 | 6.1 | -9.4 | 2.6
O=C(O)CSc1ncccn1 | -1.5 | 0.0 | 4.4 | -4.8 | 7.4 | -2.5 | 0.6 | 4.4 | 22.4 | -6.0
O=C(OCc1c(-c2ccccc2)ncc2ccccc12)c1ccccc1C(F)(F)F | -3.7 | -0.6 | -2.3 | -0.6 | 1.8 | -3.2 | -6.9 | x | x | 1.4
Fc1ccc(NC(=S)N2CCc3ccccc3C2)c(F)c1 | -1.5 | 0.6 | 0.8 | -2.5 | -7.7 | -0.3 | -7.2 | -22.0 | -4.7 | -4.3
N#Cc1ccc(-c2ccc(OCC(=O)Nc3cccnc3)cc2)cc1 | 0.7 | -0.6 | 8.4 | -7.1 | -10.1 | -12.8 | -1.4 | -11.9 | -9.6 | -6.2
O=C(O)/C(=C\c1cccc(OCc2ccccc2)c1)c1ccc(F)cc1 | 10.5* | -1.0 | 21.5 | x | -28.6 | -51.6 | -2.4 | 7.4 | 3.7 | 1.6
O=C(CCSc1ccccc1Cl)Nc1cccc([N+](=O)[O-])c1 | 3.3 | -0.4 | 1.2 | -19.0 | -12.2 | -18.3 | 2.3 | -14.9 | 9.1 | -0.8
CCOc1cc(/C=N\NC(=O)CC(=O)NCCc2ccccc2)ccc1O | -13.5 | -0.2 | 1.1 | 99.5* | 5.9 | 0.2 | 2.7 | 5.0 | -2.2 | -2.2
CCC(=O)N1CCc2cc(S(=O)(=O)CCC(=O)Nc3ccc(C(C)=O)cc3)ccc21 | 1.5 | -0.1 | 7.6 | 33.7 | 7.0 | 5.7 | -1.1 | -33.8 | 0.1 | 0.3
COC(=O)c1ccc(COC(=O)c2ccccn2)cc1 | -1.3 | -7.4 | -1.5 | -7.1 | x | x | x | 5.0 | -5.9 | -1.8
CCOC(=O)CCNC(=O)N1CCCC(CNS(=O)(=O)c2cccs2)C1 (centres undefined) | -0.8 | -1.0 | 0.7 | x | 4.4 | -0.8 | -6.6 | 15.6 | 1.5 | -6.0
COc1cc(/C=C(\NC(=O)c2ccccc2)C(=O)Nc2nccs2)ccc1OC(C)=O | 2.7 | -0.1 | 0.2 | 41.0 | 6.1 | 13.2 | -1.0 | 4.7 | -1.1 | 0.8
CC(C(=O)NC1C=CS(=O)(=O)C1)N1C(=O)/C(=C\c2ccccc2)SC1=S (centres undefined) | -1.3 | 0.4 | 0.1 | 99.2* | -16.3* | 5.0* | -1.7* | -3.3 | -20.9 | -7.6
COC(C/C=C/[C@H](O)[C@H](C)OCc1ccccc1)OC | -1.5 | 0.3 | -7.2 | -13.1 | 6.3 | 4.4 | 9.5 | -6.2 | -3.0 | -1.5
CC(C)[C@H](NC(=O)N1CC(=O)Nc2ccccc21)C(=O)N1CCC[C@@H]1C(=O)O | -2.4 | -0.2 | 0.1 | -7.4 | 2.6 | 3.0 | -0.9 | 1.1 | 3.5 | -1.2
CC(C)(C)OC(=O)C(Cc1ccc(OC(C)(C)C)cc1)NC(=O)CNC(=O)OCc1ccccc1 (centres undefined) | -3.2 | -0.4 | 6.5 | -10.4 | -21.4 | -45.9 | 23.5 | 3.1 | -17.8 | 2.1
CCOc1ccc(OCCCCNCCN)cc1 | -3.3 | 0.9 | x | -4.6 | x | x | x | 0.4 | -2.2 | -0.4
CCOC(=O)c1cc(CC)sc1NC(=O)Cc1ccsc1 | -0.9 | -0.8 | 2.3 | 2.2 | x | x | x | 2.6 | 23.0 | 4.9
Cc1c(Cl)cccc1NS(=O)(=O)c1c(C(=O)N2CCOCC2)c(C)n(C)c1C | -3.3 | 1.2 | 3.9 | -8.8 | 4.8 | 6.6 | -0.1 | 4.8 | -5.3 | x
O=C(Nc1ccccc1-c1nnn(CC(=O)N2CCCc3ccccc32)n1)c1ccc(Cl)cc1 | -2.1 | -0.8 | 7.4 | -1.7 | x | x | x | -2.6 | -6.4 | -7.1
COc1ccc(CN(Cc2cc3ccc(C)cc3[nH]c2=O)Cc2nnnn2C2CCCC2)cc1 | -1.0 | -0.2 | -12.9 | -20.1 | x | x | x | 5.8 | 25.7 | 0.2
COc1cccc(N(CC(=O)N2CCOCC2)S(C)(=O)=O)c1 | -3.5 | -0.4 | 2.1 | 1.2 | 8.0 | 7.8 | -0.2 | 3.9 | -3.7 | x
COc1ccc(Cc2nnc(SCC(=O)Nc3nc(C)cs3)o2)cc1 | -4.7 | -0.3 | 4.6 | -2.5 | x | x | x | 9.5 | 2.5 | -2.9
COc1ccc(N2C(=O)C(CC(=O)O)S/C2=C\C(C)=O)cc1 (centres undefined) | -3.1 | -0.3 | -1.5 | 10.1 | x | x | x | -2.5 | -10.3 | -4.8
COc1ccc(C2(C)NC(=O)N(CC(=O)N(c3ccccc3)C3CCS(=O)(=O)C3)C2=O)cc1 (centres undefined) | 0.7 | 2.3 | -7.3 | 0.2 | 10.8 | 6.7 | -6.9 | x | x | 0.1
COc1cc(C)ccc1OCCOCCOc1ccccc1[N+](=O)[O-] | -0.7 | 0.1 | -8.4 | x | x | x | x | 7.0 | 10.3 | -1.8
CSc1ccc(CNC(=O)Cn2nc(C)c3c(C)n(-c4ccc(C)cc4)nc3c2=O)cc1 | 2.7 | 4.5 | -5.4 | x | 6.7 | 7.6 | -0.5 | -4.8 | -10.7 | -4.7
CC(C)CCNC(=O)c1onc(CSc2ccc(Cl)cc2)c1C(=O)NCCC(C)C | 3.5 | 0.6 | 5.6 | -5.7 | 10.4 | -1.3 | 1.7 | -12.4 | 20.5 | -7.4
O=C(COC(=O)CNC(=O)c1ccco1)NCc1ccc(F)cc1 | 1.8 | 2.2 | -3.1 | -4.8 | 3.0 | -6.5 | 3.7 | 8.2 | -15.0 | -5.8
COC(=O)C1CCN(C(=O)COC(=O)CCc2nc3ccccc3c(=O)[nH]2)CC1 | x | -0.2 | 3.0 | x | 5.8 | 9.8 | 0.5 | -1.2 | -27.7 | -0.6
O=c1[nH][nH]c2nc(C(F)(F)F)cc(C(F)(F)F)c12 | -0.7 | -0.7 | -0.7 | x | x | x | x | 4.7 | 7.0 | 0.6

Source: PubChem BioAssay (several laboratories)

These rows are one share of the data, so the mix of outcomes need not match the whole.
